D2 ag: Beta-Arrestin HTS for Positive Allosteric Modulators of the Human D2 Dopamine Receptor: Agonists; DiscoveRx PathHunter D2 beta-arrestin, luminescence, 90 min; 100% = 57 uM dopamine signal; activation, % (test concentration not listed); actives 0.084% (n = 360,000); in the data active = activation above about 40%; inconclusive = about 15% to 40%; inactive = below about 15%; also: compound concentration not given in the record; the text of the record calls up to 30% inactive
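Agonist mode: compounds alone added to overnight-plated D2 PathHunter cells for 90 min at 37 C, with 57 uM final dopamine (EC100) defining full response. Beta-arrestin recruitment detected by chemiluminescent reagent, read after 1 h at ambient temperature.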
D2 potentiator: Beta-Arrestin HTS for Positive Allosteric Modulators of the Human D2 Dopamine Receptor: Potentiators; D(2) dopamine receptor (Homo sapiens), P14416; DiscoveRx D2 beta-arrestin cells, luminescence, 90 min; 100% = 57 uM dopamine signal; potentiation, % (test concentration not listed); actives 0.23% (n = 360,000); AID 624464, 2012; active = potentiation of 50% or more; inconclusive = 30% to 50%; inactive = 30% or less;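 also: compound concentration not given in the record; tested on top of an EC20 dose of dopamine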
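PathHunter D2 cells, attached overnight at 37 deg C, received compound in DMSO plus dopamine at EC20 (50 nM final) for 90 min at 37 deg C. Beta-arrestin recruitment was read as luminescence after 1 h with detection reagent at ambient temperature.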
Six1-Eya2 blk: qHTS Assay for Inhibitors of the Six1/Eya2 Interaction | Homeobox protein SIX1 (Homo sapiens) + Protein phosphatase EYA2 (Homo sapiens), … | AID 651725, 2012 | activity change, % (concentration not given with the values) | actives 0.56% (n = 360,000) | AlphaScreen GST-Six1/His-Eya2 binding, biochemical; stronger effect = lower value; control for the full effect not named in the record; in the data active = activity change below about -65%; inconclusive = about -30% to -65%; inactive = above about -30%; also: % is scaled to controls: 0 for no effect and ±100 for the full control effect
Target sequence (O00167 whole entry, looked up): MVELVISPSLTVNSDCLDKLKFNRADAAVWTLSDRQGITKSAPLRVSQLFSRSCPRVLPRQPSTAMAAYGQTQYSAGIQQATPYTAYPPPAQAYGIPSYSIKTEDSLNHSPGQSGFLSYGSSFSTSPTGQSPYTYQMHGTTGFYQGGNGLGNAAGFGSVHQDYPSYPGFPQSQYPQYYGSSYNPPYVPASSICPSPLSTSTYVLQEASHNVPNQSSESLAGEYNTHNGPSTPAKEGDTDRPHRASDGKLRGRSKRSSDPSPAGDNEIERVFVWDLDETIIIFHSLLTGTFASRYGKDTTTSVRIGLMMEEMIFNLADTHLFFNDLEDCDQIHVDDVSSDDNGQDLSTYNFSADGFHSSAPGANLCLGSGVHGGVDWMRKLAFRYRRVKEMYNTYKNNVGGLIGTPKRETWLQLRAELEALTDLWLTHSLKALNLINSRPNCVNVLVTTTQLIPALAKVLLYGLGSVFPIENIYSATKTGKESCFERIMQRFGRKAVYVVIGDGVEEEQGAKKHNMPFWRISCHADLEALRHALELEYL
Target sequence (Q15475 whole entry, looked up): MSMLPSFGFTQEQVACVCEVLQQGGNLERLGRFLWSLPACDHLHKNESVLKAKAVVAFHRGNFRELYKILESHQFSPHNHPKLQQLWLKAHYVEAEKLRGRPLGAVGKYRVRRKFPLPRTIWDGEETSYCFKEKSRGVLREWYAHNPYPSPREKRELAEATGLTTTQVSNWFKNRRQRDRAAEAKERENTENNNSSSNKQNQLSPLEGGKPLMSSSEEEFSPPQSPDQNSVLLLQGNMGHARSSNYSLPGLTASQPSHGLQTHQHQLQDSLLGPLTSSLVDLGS
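AlphaScreen luminescence read after one hour at 37 °C in darkness. Pin-transferred compounds met GST-Six1 and His-Eya2 protein (5X stock 250 nM/500 nM) plus glutathione donor and Ni-chelate acceptor beads (5X, 50 ug/mL).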
TRPML1 blocker: qHTS for Inhibitors of the Human Mucolipin Transient Receptor Potential 1 (TRPML1); actives 0.02% (n = 390,000); activity change, negative = inhibition, % (no concentration beside the values); AID 624415, 2012; TRPML1-inducible cells, Ca2+ dye fluorescence, FDSS; stronger effect = lower value; inhibition of EC80 agonist-evoked calcium signal; Mucolipin-1 (Homo sapiens), Q9GZU1; in the data active means activity change below about -50%; inconclusive means about -30% to -50%; inactive means above about -30%;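 also: stimulus is agonist 54-4 at its EC80 concentration; % is scaled to controls: 0 for no effect and ±100 for the full control effect; compound concentration not given in the record; the text of the record puts the active cut at -80%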
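TRPML1-DL cells, Tet-induced overnight (~16 h, 37 °C) at 1,500 cells/well, were loaded with Ca8 no-wash dye plus quencher for 45-90 min at room temperature. Compounds were pinned during FDSS kinetic reading; agonist 54-4 at EC80 (4 uM final) then added.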
PINK1 expr mod: A Quantitative High throughput Screen to Identify Chemical Modulators of PINK1 Expression; Potency, µM (highest dose often 76.6 µM), inactives show at the top dose activation (PINK1 increase), most hits filed as activators; actives 0.2% (n = 410,000); AID 624263, 2012; PINK1 immunofluorescence, high-content cytometry, 24 h; active = well fitted activation curve with a large enough effect; inconclusive = small, poorly fitted or top-dose-only effect; inactive = flat fitted curve, though single readings scatter; cell line not stated here;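 also: potency is read from the fitted curve at half-maximal effect; % of control where 0% means no effect; nearly all actives have a fitted effect of over 65% in size; a mitochondrial uncoupler was the plate control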
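A stable cell line was treated with compounds at 5 concentrations for 24 hours, with CCCP as control. PINK1 levels and mitochondrial localization were measured by immunofluorescence with mitochondrial, cell and nuclear markers after fixation, read by laser-scanning cytometry.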
TRPML1 agonist: qHTS for Agonists of the Human Mucolipin Transient Receptor Potential 1 (TRPML1); Mucolipin-1 (Homo sapiens), Q9GZU1; TRPML1-expressing cells, Ca2+ dye fluorescence, FDSS; host cell line not named in the record; reference of the full effect not given here; activation, % (test concentration not listed); actives 0.12% (n = 410,000); AID 624414, 2012; in the data active = activation above about 50%; inconclusive = about 30% to 50%; inactive = below about 30%; also: 0% is about no effect; the text of the record puts the active cut at 80%
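Kinetic FDSS Ca2+ read in Tet-induced TRPML1-DL cells (ABD Ca8 dye plus quencher, 45-90 min RT loading): baseline, then compound, then 110 s agonist window; EC80 agonist 54-4 at 4uM final added afterwards for a 110 s antagonist window.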
* marks the source's active call; other numbers are inactive results; & = joins results of further samples.

`O=C(CCN1C(=O)/C(=C\c2ccc(F)cc2)SC1=S)Nc1ccc(O)cc1` gave D2 ag -3.1, D2 potentiator 1, Six1-Eya2 blk -10, TRPML1 blocker 8, PINK1 expr mod 0.4% and TRPML1 agonist 0.5.
CCOc1ccc(S(=O)(=O)Nc2cc3c(C(=O)OC)c(COC)oc3c3ccccc23)cc1 was read as TRPML1 blocker -16, PINK1 expr mod 4.3% and TRPML1 agonist -0.8.
CC1(C)C(=O)NCCN1C(=O)CC1C(=O)NCCN1CC(c1ccccc1)c1ccccc1 (configuration not stated) was read as D2 ag -3.7, D2 potentiator -2, Six1-Eya2 blk 1, TRPML1 blocker 8, PINK1 expr mod 1.3% and TRPML1 agonist -0.3.
For Cc1ccc(NC(=O)Nc2ccc(C(=O)N3CCOCC3)cc2)cc1 the results were D2 ag 2.5, D2 potentiator -1, Six1-Eya2 blk 1, TRPML1 blocker 2, PINK1 expr mod 1.0% and TRPML1 agonist 1.1.
`Fc1ccc(CNc2ncnc3c2c(-c2ccccc2)cn3-c2ccccc2)cc1` gave TRPML1 blocker 67, PINK1 expr mod 2.6% and TRPML1 agonist 1.0.
`Cc1ccc(/C=N/NC(=O)C(c2ccncc2)N2CCOCC2)cc1` (configuration not stated) gave D2 ag -6.3, D2 potentiator -16, Six1-Eya2 blk 5, TRPML1 blocker 8, PINK1 expr mod 1.1% and TRPML1 agonist -0.1.
O=C(COc1ccccc1Cl)N1CCc2ccccc21 was read as D2 ag -2.9, D2 potentiator -7, Six1-Eya2 blk 9, TRPML1 blocker 3, PINK1 expr mod 1.0% and TRPML1 agonist -0.1.
Screening C=CCNC(=O)CSc1nnc(-c2ccc(S(=O)(=O)N3CCCC3)cc2)n1C returned D2 ag -3.1, D2 potentiator -6, Six1-Eya2 blk 1, TRPML1 blocker -6, PINK1 expr mod 1.2% and TRPML1 agonist 0.6.
O=[N+]([O-])c1cc([N+](=O)[O-])c(Oc2cc(Cl)cc(Cl)c2)cc1NN1CCCCC1 was read as D2 ag -1.1, D2 potentiator -10, Six1-Eya2 blk -5, TRPML1 blocker 29, PINK1 expr mod 3.3% and TRPML1 agonist -0.4.
For COC(=O)C[C@H]1c2ccccc2S(=O)(=O)N1c1cccc(OC)c1 the results were D2 ag 1.9, D2 potentiator -4, Six1-Eya2 blk 1, TRPML1 blocker 18, PINK1 expr mod -0.6% and TRPML1 agonist -0.4&-0.5.
`COc1cccc(OC)c1OCCCCCc1c(C)n[nH]c1C` gave D2 ag -3.4, D2 potentiator 4, Six1-Eya2 blk 0, TRPML1 blocker 23, PINK1 expr mod 2.2% and TRPML1 agonist 0.9.
COc1cccc(-c2cc(C(F)(F)F)nc(NCCc3ccccc3)n2)c1 was read as TRPML1 blocker 16, PINK1 expr mod 8.1% and TRPML1 agonist 2.2.
CCCCNc1nc(-c2ccccc2)cc(C(F)(F)F)c1C(N)=O was read as D2 ag 2.1, D2 potentiator -3, Six1-Eya2 blk 6, TRPML1 blocker -14 and TRPML1 agonist 3.1.
For COc1ccc(-c2nc(-c3cccs3)c(-c3cccs3)[nH]2)cc1O the results were D2 ag -0.4, D2 potentiator -5, Six1-Eya2 blk inconclusive, TRPML1 blocker 15, PINK1 expr mod -0.4% and TRPML1 agonist 0.2.
Screening C[C@@H]1CN([C@H](C)CO)C(=O)c2cc(NC(=O)Nc3cccc4ccccc34)ccc2O[C@H]1CN(C)Cc1ccc(C(F)(F)F)cc1 returned D2 ag -2.5, Six1-Eya2 blk -12, TRPML1 blocker -2, PINK1 expr mod 1.5% and TRPML1 agonist 0.1.
Screening COc1ccc(-c2nc3cccc(C)n3c2NCC2CCCO2)cc1O (configuration not stated) returned D2 ag 9.2, D2 potentiator 15, Six1-Eya2 blk -18, TRPML1 blocker -2, PINK1 expr mod -2.1% and TRPML1 agonist 0.7.
Screening COC(=O)c1cc(Cl)ccc1NC(=O)Cn1c(C)cc(C)c(C#N)c1=O returned TRPML1 blocker 2, PINK1 expr mod 0.9% and TRPML1 agonist -0.9.
O=S1(=O)N=C2CCCCCN2C(c2ccncc2)N1 (configuration not stated) was read as D2 ag -4.4, D2 potentiator -8, Six1-Eya2 blk 5, TRPML1 blocker 5, PINK1 expr mod 0.2% and TRPML1 agonist -0.6.
Screening O=C1C=CC(=O)N1c1ccc2c(c1)Cc1cc(F)ccc1-2 returned D2 ag -2.5, D2 potentiator -12, Six1-Eya2 blk -3, TRPML1 blocker 4, PINK1 expr mod 2.5% and TRPML1 agonist 2.1.
For COc1ccc(NC(=O)CSc2nc(C)cc(C)n2)c([N+](=O)[O-])c1 the results were D2 ag 2.6, D2 potentiator 7, Six1-Eya2 blk -9, TRPML1 blocker 7, PINK1 expr mod 2.8% and TRPML1 agonist 0.1.

Overlap with the part before: 2 compounds; new compounds follow.
Screening O=C1C=CC(=O)N1c1ccc2c(c1)Cc1cc(F)ccc1-2 returned D2 ag -2.5, D2 potentiator -12, Six1-Eya2 blk -3, TRPML1 blocker 4, PINK1 expr mod 2.5% and TRPML1 agonist 2.1.
For COc1ccc(NC(=O)CSc2nc(C)cc(C)n2)c([N+](=O)[O-])c1 the results were D2 ag 2.6, D2 potentiator 7, Six1-Eya2 blk -9, TRPML1 blocker 7, PINK1 expr mod 2.8% and TRPML1 agonist 0.1.
Screening CCN(CC)c1ccc2c(O)cc(=O)oc2c1 returned D2 ag 3.2, D2 potentiator 6, Six1-Eya2 blk 9, TRPML1 blocker -18, PINK1 expr mod 2.6% and TRPML1 agonist 2.5.
Screening COC(=O)c1cn(-c2ccc(F)cc2)c(=O)c2ccccc12 returned D2 ag 4.7, D2 potentiator -7, Six1-Eya2 blk 10, TRPML1 blocker 17, PINK1 expr mod 0.4% and TRPML1 agonist -0.8.
For Cc1ccccc1OCC(=O)OCC(=O)c1ccc(OCc2ccccc2)cc1 the results were D2 ag -10, D2 potentiator -3, Six1-Eya2 blk 19, TRPML1 blocker -12, PINK1 expr mod 0.2% and TRPML1 agonist 0.8.
`CC(C)c1nc(C#N)c(NN)o1` gave D2 ag -12, D2 potentiator -19, Six1-Eya2 blk -5, TRPML1 blocker 30, PINK1 expr mod -0.7% and TRPML1 agonist 0.6.
COCOc1ccc(C=O)cc1OCOC was read as D2 ag -2.3, D2 potentiator -25, Six1-Eya2 blk 7 and PINK1 expr mod -1.1%.
CCc1ccc(NC(=O)Cn2c(=O)n(CCC(=O)N3CCc4ccccc4C3)c(=O)c3ccccc32)cc1 was read as TRPML1 blocker 0, PINK1 expr mod 0.8% and TRPML1 agonist -0.7.
For Cc1ccc(NC(=O)Nc2ncccc2C)cc1 the results were D2 ag -1.3, D2 potentiator -22, Six1-Eya2 blk 1, TRPML1 blocker -2, PINK1 expr mod -1.9% and TRPML1 agonist 2.1.
Screening C=CCN(CC=C)CCOc1ccc(OC(C)C)cc1 returned D2 ag 6.2, D2 potentiator -5, Six1-Eya2 blk -1, TRPML1 blocker 11, PINK1 expr mod 4.0% and TRPML1 agonist -0.2.
CCc1ccc2[nH]c(=O)c(CN(Cc3ccc4c(c3)OCO4)C(=O)c3ccco3)cc2c1 was read as D2 ag -1.4, D2 potentiator -2, Six1-Eya2 blk -23, TRPML1 blocker -5, PINK1 expr mod -1.4% and TRPML1 agonist 1.1.
For COc1cccc(OC)c1C(=O)Nc1nc(-c2ccccc2)cs1 the results were D2 ag -3.7, D2 potentiator -2, Six1-Eya2 blk -8, TRPML1 blocker 0, PINK1 expr mod 1.3% and TRPML1 agonist -0.2.
Cc1ccc(-c2[nH]nc3c2C(c2ccsc2)C(C#N)=C(N)O3)cc1 (configuration not stated) was read as D2 ag -4.0, D2 potentiator -7, Six1-Eya2 blk -1, TRPML1 blocker 22, PINK1 expr mod -3.4% and TRPML1 agonist -1.3.
Screening CCOc1ccc(NS(=O)(=O)c2ccc(C)c(C(=O)NCCCn3ccnc3)c2)cc1 returned D2 ag 1.7, D2 potentiator -6, Six1-Eya2 blk -1, TRPML1 blocker -8, PINK1 expr mod -0.3% and TRPML1 agonist 1.5.
`COc1cccc(-c2nc(CS(=O)(=O)CC(=O)NCc3ccc4c(c3)OCO4)c(C)o2)c1` gave D2 ag 0.4, D2 potentiator -6, Six1-Eya2 blk -17, TRPML1 blocker -2, PINK1 expr mod 4.4% and TRPML1 agonist -0.8.
CCOc1ccccc1-c1nnc(SCC(=O)NC2CC3CCC2C3)n1CC (configuration not stated) was read as D2 ag -2.7, D2 potentiator -11, Six1-Eya2 blk -2, TRPML1 blocker -7, PINK1 expr mod -0.9% and TRPML1 agonist -1.9.
`COC(=O)/C(C#N)=C/c1occc1C` gave D2 ag -7.1, D2 potentiator 12, Six1-Eya2 blk 4, TRPML1 blocker -11, PINK1 expr mod -0.3% and TRPML1 agonist -0.9.
`Cc1cccc(NS(=O)(=O)c2cc3c4c(c2)CCC(=O)N4CCC3)c1` gave D2 ag -4.0, D2 potentiator -2, Six1-Eya2 blk 2, TRPML1 blocker 2, PINK1 expr mod 0.3% and TRPML1 agonist 2.0.
O=C(CSC1=Nc2ccccc2C2CC=NN12)NCc1ccco1 (configuration not stated) was read as D2 ag -1.6, D2 potentiator -8, Six1-Eya2 blk -13, TRPML1 blocker 0, PINK1 expr mod 4.7% and TRPML1 agonist -0.5.
`CC(=O)c1cccc(NC(=O)c2oc3c(c2C)-c2nn(Cc4ccc(Cl)cc4)cc2CC3)c1` gave TRPML1 blocker 66, PINK1 expr mod 0.5% and TRPML1 agonist 2.6.
Screening Cn1c(=O)c2cc(NC(=S)NC3CCCCC3)ccc2n1Cc1cccc(C(F)(F)F)c1 returned D2 ag 9.2, D2 potentiator -5, Six1-Eya2 blk 2, PINK1 expr mod -0.2% and TRPML1 agonist -1.0.
Cc1ccc(S(=O)(=O)Nc2ccc(O)c3ncccc23)cc1 was read as D2 ag 1.0, D2 potentiator 1, Six1-Eya2 blk -91*, TRPML1 blocker 21, PINK1 expr mod -2.0% and TRPML1 agonist 1.5.
NC(=O)c1cccc2cc3ccccc3cc12 was read as D2 ag 6.9, D2 potentiator -2, Six1-Eya2 blk 4, TRPML1 blocker -1, PINK1 expr mod 2.0% and TRPML1 agonist -0.1.
For Cc1nn(C)c(C)c1Sc1ccc(Br)cc1 the results were D2 ag -2.1, D2 potentiator -24, Six1-Eya2 blk -1, TRPML1 blocker 4, PINK1 expr mod 6.2% and TRPML1 agonist 0.3.
NC1=NC2(CCCC2)n2c(nc3ccccc32)N1 was read as D2 ag -3.4, D2 potentiator -9, Six1-Eya2 blk -5, TRPML1 blocker -4, PINK1 expr mod 7.7% and TRPML1 agonist -0.6.
For S=c1[nH]nc(-c2ccco2)n1/N=C/C=C/c1ccco1 the results were D2 ag -1.1, D2 potentiator -17, Six1-Eya2 blk -26, TRPML1 blocker -9, PINK1 expr mod 4.2% and TRPML1 agonist 4.2.

High-throughput results (PubChem BioAssay)
